Assay outcomes: PubChem BioAssay, National Center for Advancing Translational Sciences (NCATS)
CtBP-E1A inh: CtBP/E1A binding inhibition | AlphaScreen GST-E1A/His-CtBP binding, 1536-well; active compounds read low; control for the full effect not named in the record | activity change, % (concentration not given with the values) | 340,000 tested, 0.49% active | AID 651724; in the data active means activity change below about -65%; inconclusive means about -30% to -65%; inactive means above about -30%; also: % is scaled to controls: 0 for no effect and ±100 for the full control effect
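AlphaScreen with 125 nM GST-E1A and 125 nM His-CtBP (5X stocks) in Tris pH 8.0, 300 mM NaCl, BSA, Tween 20, TCEP. Compounds preincubated 2 h at 37 deg C, then glutathione donor/nickel acceptor beads added for 1 h at 37 deg C in dark.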
gsp agonist: gsp mutant agonism | gsp mutant cells, cAMP HTRF, 30 min; control for the full effect not named in the record | Potency, µM (top dose mostly 76.9 µM), inactives show at the top dose activation (cAMP increase), usual class: activators | 340,000 tested, 0.13% active; active = well fitted activation curve with a large enough effect; inconclusive = small, poorly fitted or top-dose-only effect, or another doubt; inactive = no such curve, though single readings can be large or run the other way; cell line not stated here;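 also: phosphodiesterase inhibitor Ro 20-1724 added with compounds to block cAMP breakdown; potency is read from the fitted curve at half-maximal effect; nearly all actives have a fitted effect of over 60% in size; about a fifth of the inactives were tested at one dose only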
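Cells stably selected in G418 were plated at 2000/well, grown 16-24 hr, then given compounds in DMSO with the PDE inhibitor […] (300 uM solution added) for 30 min at 37C; cAMP was read by HTRF.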
D2 agonist: activates the human D2 dopamine receptor. P14416. DiscoveRx PathHunter D2 beta-arrestin, luminescence, 90 min; 100% = 57 uM dopamine signal. activation, % (no concentration beside the values). 360,000 tested, 0.084% active. AID 624465; in the data active = activation above about 40%; inconclusive = about 15% to 40%; inactive = below about 15%; also: compound concentration not given in the record; the text of the record calls up to 30% inactive
Target sequence (P14416 whole entry, looked up): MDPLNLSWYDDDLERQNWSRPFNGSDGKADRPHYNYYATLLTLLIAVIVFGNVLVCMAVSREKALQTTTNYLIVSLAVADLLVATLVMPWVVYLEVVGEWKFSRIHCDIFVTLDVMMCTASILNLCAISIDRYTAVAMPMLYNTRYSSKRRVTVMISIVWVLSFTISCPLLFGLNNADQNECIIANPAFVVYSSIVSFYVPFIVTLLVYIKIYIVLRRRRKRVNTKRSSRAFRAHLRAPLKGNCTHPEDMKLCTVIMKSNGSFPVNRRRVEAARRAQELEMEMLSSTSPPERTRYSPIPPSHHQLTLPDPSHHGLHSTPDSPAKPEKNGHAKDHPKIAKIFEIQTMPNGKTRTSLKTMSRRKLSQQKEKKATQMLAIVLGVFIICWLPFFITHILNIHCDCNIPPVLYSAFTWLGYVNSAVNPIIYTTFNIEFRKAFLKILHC
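Agonist mode: compounds alone added to overnight-plated D2 PathHunter cells for 90 min at 37 C, with 57 uM final dopamine (EC100) defining full response. Beta-arrestin recruitment detected by chemiluminescent reagent, read after 1 h at ambient temperature.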
Six1-Eya2 blk: Six1/Eya2 interaction inhibition; Q15475+O00167; AlphaScreen GST-Six1/His-Eya2 binding, biochemical; active compounds read low; control for the full effect not named in the record; activity change, % (test concentration not listed); 360,000 tested, 0.56% active; in the data active = activity change below about -65%; inconclusive = about -30% to -65%; inactive = above about -30%; also: % is scaled to controls: 0 for no effect and ±100 for the full control effect
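AlphaScreen with GST-Six1 and His-Eya2 (5X mix: 250 nM and 500 nM), glutathione donor and nickel acceptor beads; buffer 50 mM Tris pH 8.0, 300 mM NaCl, 1 mM TCEP; 1 h at 37 C in the dark.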
D2 PAM: potentiates the human D2 dopamine receptor allosterically; 360,000 tested, 0.23% active; DiscoveRx D2 beta-arrestin cells, luminescence, 90 min; 100% = 57 uM dopamine signal; P14416; potentiation, % (test concentration not listed); active = potentiation of 50% or more; inconclusive = 30% to 50%; inactive = 30% or less;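 also: compound concentration not given in the record; tested on top of an EC20 dose of dopamine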
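PathHunter D2 cells, attached overnight at 37 deg C, received compound in DMSO plus dopamine at EC20 (50 nM final) for 90 min at 37 deg C. Beta-arrestin recruitment was read as luminescence after 1 h with detection reagent at ambient temperature.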
gsp antag: antagonizes gsp, the McCune-Albright syndrome mutation; gsp-mutant cells, cAMP HTRF, 30 min; control for the full effect not named in the record; Potency, µM (series often up to 76.9 µM), inactives show at the highest dose activity change, negative = inhibition, most hits filed as inhibitors; 340,000 tested, 0.4% active; AID 624288; active = falling curve of any shape with a large fitted effect; inconclusive = falling curve, mostly with a smaller effect; inactive = flat or rising curve; cell line not stated here;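 also: intracellular cAMP measured with PDE inhibitor Ro 20-1724 present during compound exposure; potency is read from the fitted curve at half-maximal effect; % is scaled to controls: 0 for no effect and ±100 for the full control effect; nearly all actives have a fitted effect of over 65% in size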
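HTRF cAMP measurement after 30 min RT detection following 30 min, 37C compound treatment alongside […] (added as 300 uM solution) in G418-selected cells seeded at 2000/well and grown 16–24 h.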
* marks the source's active call; other numbers are inactive results; u = inconclusive; x = not tested or not shown; [ ] = remark or other dose.

Second line of a record – CtBP-E1A inh, gsp agonist, D2 agonist, Six1-Eya2 blk, D2 PAM, gsp antag
(1) Cc1ccc(-c2nc(CS(=O)CC(=O)NCc3ccc4c(c3)OCO4)c(C)o2)cc1 (configuration not stated)
→ -1, -59%[inhibitor], -4.0, -2, -10, -6%
(2) O=C(Nc1ccccc1N1CCCC1)C1CCN(S(=O)(=O)c2cccc(C(F)(F)F)c2)CC1
→ -13, -30%[15.4 µM], -1.7, -13, 1, -24%
(3) CCOC(=O)c1ccc(NC(=O)CC2OCCN(CC)C2=O)cc1 (configuration not stated)
→ 2, 2%, -4.1, -5, -10, -1%
(4) O=C(/C=C/c1ccc(NC(=O)c2ccccc2-c2ccccc2C(=O)O)cc1)c1ccccc1
→ x, -21%, -4.3, 7, -19, u
(5) CC(=O)C(=Nc1ccc(Cl)cc1Cl)NNc1cccc(Cl)c1
→ u, 17%, u, u, 125*, -11%
(6) CC(C)(C)c1nnc(NC(=O)c2cccs2)s1
→ x, -78%, -0.3, 9, -13, -13%
(7) Cc1cccc(-n2ncc3c(NCCCO)ncnc32)c1
→ 7, 31%, u, 0, -3, -8%
(8) COc1cccc(N(C(C)=O)c2nc(C)cc(C)c2C#N)c1
→ -1, -7%, -0.7, 2, -2, -3%
(9) CC(=O)N(C(C)=O)S(=O)(=O)c1ccc(N=NN2CCOCC2)cc1
→ 5, -12%, -3.2, 1, -13, 1%
(10) Cc1ccc(NC(=S)NNC(=O)c2ccc(N3CCOCC3)c([N+](=O)[O-])c2)cc1C
→ 9, -5%, -7.6, -15, -27, -3%
(11) Cc1ccc(S(=O)(=O)NC(=O)C2(C)CCN2C(=O)Cc2ccc(Cl)cc2Cl)nc1 (configuration not stated)
→ 8, x, 4.0, -1, 13, x
(12) CC1=CC(=C(C#N)C#N)C=C(C)N1Cc1ccc(Cl)cc1
→ -8, -19%[15.4 µM], -2.7, -1, 2, 11%
(13) COc1ccc(-n2nnc3c(=O)n(CC(=O)Nc4cc(C)on4)cnc32)cc1
→ -6, 12%[15.4 µM], -3.4, 0, -11, 0%
(14) O=C(CSc1nc(-c2ccccc2)cc(=O)[nH]1)Nc1ccccn1
→ -5, -1%, -1.6, -8, -19, -15%
(15) COc1ccc(C2C(=O)N(C3CCCCC3)CC(=O)N2C2CCCCC2)cc1 (configuration not stated)
→ 6, 2%, -1.8, 1, 0, -10%

Compound profiles (already shown). Order of values: CtBP-E1A inh | gsp agonist | D2 agonist | Six1-Eya2 blk | D2 PAM | gsp antag
Profile of `O=C(Nc1ccccc1N1CCCC1)C1CCN(S(=O)(=O)c2cccc(C(F)(F)F)c2)CC1` : -13 | -30%[15.4 µM] | -1.7 | -13 | 1 | -24%
Profile of `COc1ccc(C2C(=O)N(C3CCCCC3)CC(=O)N2C2CCCCC2)cc1` (configuration not stated) : 6 | 2% | -1.8 | 1 | 0 | -10%

(list continues)
Second line of a record – CtBP-E1A inh, gsp agonist, D2 agonist, Six1-Eya2 blk, D2 PAM, gsp antag
(16) Cc1c(C(=O)OCC(=O)N2CC(=O)Nc3ccccc32)oc2ccc(Br)cc12
→ 0, u, -1.6, 0, 20, -3%
(17) CC(/C=C1\SC(=S)N(CCC(=O)Nc2ccc(O)cc2)C1=O)=C\c1ccccc1
→ -6, 24%, 1.6, -7, 9, -13%
(18) Cc1cccc(NCN2C(=O)c3ccncc3C2=O)n1
→ 7, 8%, -3.1, 0, -12, 11%
(19) CCOc1ccc(Br)cc1S(=O)(=O)Nc1cccc(S(=O)(=O)NC2=NCCC2)c1
→ x, -22%, -1.3, 8, -11, -4%
(20) Cn1c(CSc2nc3ccccc3s2)nnc1SCC(=O)NCCN1CCOCC1
→ -18, u, 0.6, -4, 1, 3%
(21) C/C(=N\NC(=O)CC#N)c1ccc(Oc2ccccc2)cc1
→ x, 3%, -2.7, 11, -3, -10%
(22) COc1ccccc1CN(C)CC(=O)NC(=O)NC1CCCCC1
→ 3, -2%, 0.5, 0, -4, -6%
(23) Cc1nc(NC(=O)/C=C/c2ccccc2)sc1C(=O)Nc1ccccc1
→ 9, -62%[inhibitor], -2.0, 1, 4, -16%
(24) COc1ccc(S(=O)(=O)N2CCN=C2SCc2cccnc2)cc1
→ 0, -10%[15.4 µM], -5.5, -10, -4, 6%
(25) C#CCNC(=O)C1=C[C@@H](C2CC2)C[C@@H](OCc2ccc(CO)cc2)O1
→ 4, x, -2.2, 1, -5, -3%
(26) CN1C(=O)C(Cl)(Cl)C(=O)c2ccccc21
→ -1, 16%[15.4 µM], 3.0, 9, 18, 2%
(27) COC(=O)C(Cc1ccccc1)NC(=O)CCNC(=O)c1ccco1 (configuration not stated)
→ 2, -4%[15.4 µM], -1.6, -2, -4, -3%
(28) Cn1c2c(c(=O)n(C)c1=O)C(c1ccccc1F)C(C#N)=C(N)O2 (configuration not stated)
→ -6, -16%, -0.3, 5, -8, 3%
(29) COc1ccc(CCN(C)C(=O)c2ccc(S(=O)(=O)Nc3ccccc3F)cc2)cc1OC
→ -5, 0%, -3.1, -1, 1, -6%
(30) Cc1cccc(Nc2ccccc2C(=O)OCC(=O)N(C)C2CCS(=O)(=O)C2)c1C (configuration not stated)
→ 8, -5%, -0.6, -1, -12, -4%
(31) Cc1ccc(NC(=O)CSc2nnc(-c3cccnc3)n2-c2ccc(C)cc2)cc1
→ 0, 8%, -1.6, 4, -17, -1%
(32) O=c1[nH]nc(CNc2ccc(O)cc2)c2ccccc12
→ u, 12%, 14, -25, 71*, -2%
(33) O=[N+]([O-])c1ccc(CC(Cl)c2ccccn2)cc1 (configuration not stated)
→ 6, u, 6.3, -1, -6, 9%
(34) FC(F)(F)c1cnc2c(c1)[nH]c(=S)n2-c1ccc(Cl)cc1
→ -3, 94%, 8.3, 1, -5, -15%
(35) COc1ccccc1NC(=O)Cn1c(=O)n2nc(C)nc2c2ccccc21
→ -24, u, -7.3, -13, -6, 5%
(36) CCCCN(C(=O)CCCc1nc2ccccc2s1)c1c(N)n(CC(C)C)c(=O)[nH]c1=O
→ -2, 11%, -1.1, 3, 2, -1%
(37) CCC1=NN(C(=O)c2ccc(Br)cc2)C(O)(c2ccccc2)C1 (configuration not stated)
→ 6, u, -0.7, -7, -25, -11%
(38) CCc1ccc(OCC(=O)NNC(=O)CSc2nnc(-c3ccc(C)cc3)n2C)cc1
→ -6, 0%, -2.6, -1, -16, 10%
(39) CCOC(=O)c1ccc(-n2c(C)ccc2C)cc1
→ 2, 2%, -1.7, 2, 6, 18%
(40) Cc1ccc(NC(=O)CSc2nc3nc(C)c(Br)cc3[nH]2)cc1F
→ x, 0%, 3.5, 7, -4, -6%
(41) O=C(NCc1ccco1)c1ccc(Cl)c(S(=O)(=O)N2CCOCC2)c1
→ 2, 47%, -4.1, 0, 2, 8%
(42) CC1CN2C(c3ccc([N+](=O)[O-])cc3)=CSC2=N1 (configuration not stated)
→ -16, 0%[15.4 µM], 2.6, -6, -31, 1%
(43) COc1ccc2oc(=O)c(-c3nnc(NCc4ccco4)s3)cc2c1
→ -27, 17%[15.4 µM], 1.4, -17, -20, -5%
(44) CCC(C)[C@H](N)c1nnc(SCC(=O)c2ccc(Cl)cc2)o1 (some centres not stated)
→ -8, 33%, -0.7, 0, -6, -2%
(45) NS(=O)(=O)c1ccc(CCNS(=O)(=O)c2cccc3nsnc23)cc1
→ 14, 11%[15.4 µM], -1.9, 3, 7, 4%

Grouped by structure, the entries above with an aryl thioether with sulfur outside any ring (6)
Second line of a record – CtBP-E1A inh, gsp agonist, D2 agonist, Six1-Eya2 blk, D2 PAM, gsp antag
(14) O=C(CSc1nc(-c2ccccc2)cc(=O)[nH]1)Nc1ccccn1
→ -5, -1%, -1.6, -8, -19, -15%
(20) Cn1c(CSc2nc3ccccc3s2)nnc1SCC(=O)NCCN1CCOCC1
→ -18, u, 0.6, -4, 1, 3%
(31) Cc1ccc(NC(=O)CSc2nnc(-c3cccnc3)n2-c2ccc(C)cc2)cc1
→ 0, 8%, -1.6, 4, -17, -1%
(38) CCc1ccc(OCC(=O)NNC(=O)CSc2nnc(-c3ccc(C)cc3)n2C)cc1
→ -6, 0%, -2.6, -1, -16, 10%
(40) Cc1ccc(NC(=O)CSc2nc3nc(C)c(Br)cc3[nH]2)cc1F
→ x, 0%, 3.5, 7, -4, -6%
(44) CCC(C)[C@H](N)c1nnc(SCC(=O)c2ccc(Cl)cc2)o1 (some centres not stated)
→ -8, 33%, -0.7, 0, -6, -2%

Other results.
Second line of a record – CtBP-E1A inh, gsp agonist, D2 agonist, Six1-Eya2 blk, D2 PAM, gsp antag
(46) CCOC(=O)CCc1cccc2c1CCC2=O
→ 2, 6%, -4.8, -16, 2, 2%
(47) COC(=O)c1ccc(NC(=O)CC(=O)Nc2ccc(C(=O)OC)cc2)cc1
→ -4, -9%, -0.2, -9, -8, 12%
(48) Cc1cc(=O)oc2cc(OCC(=O)NC3CCCCC3)c(Cl)cc12
→ 0, 7%, -2.1, 1, -5, -4%
(49) O=C(c1csc2c1CCCC2)N1CCN(c2cccc(C(F)(F)F)c2)CC1
→ 0, -17%, 2.0, -4, 6, -19%
(50) Cc1ccccc1C(=O)NNC(=O)/C=C/c1ccccc1
→ 2, u, -1.0, 4, -6, 11%
(51) COc1c(C)cccc1C(=O)NCc1ccc2c(c1)OCO2
→ 10, 38%, 1.8, -6, -6, 4%
(52) O=c1cc(CN2CCN(C/C=C/c3ccccc3)CC2)c2cc(O)ccc2o1
→ u, 1%, 1.4, -20, -27, -7%
(53) CCCc1ncc(C(O)c2cccc(OC)c2)n1C (configuration not stated)
→ x, -1%, -3.2, 2, -18, -5%
(54) Cc1noc(C)c1S(=O)(=O)N1CCCC1C(=O)O (configuration not stated)
→ -4, -20%, 0.6, 1, -5, -2%
(55) CC(C)Cn1cnc2c1c(=O)n(CC(=O)NC(=O)NC(C)(C)C)c(=O)n2Cc1ccccc1
→ 0, 16%[15.4 µM], -3.1, 1, 2, x

Laid out differently: results already given.
34	FC(F)(F)c1cnc2c(c1)[nH]c(=S)n2-c1ccc(Cl)cc1
35	COc1ccccc1NC(=O)Cn1c(=O)n2nc(C)nc2c2ccccc21
36	CCCCN(C(=O)CCCc1nc2ccccc2s1)c1c(N)n(CC(C)C)c(=O)[nH]c1=O
37	CCC1=NN(C(=O)c2ccc(Br)cc2)C(O)(c2ccccc2)C1 (configuration not stated)
38	CCc1ccc(OCC(=O)NNC(=O)CSc2nnc(-c3ccc(C)cc3)n2C)cc1
compound no.	34	35	36	37	38
CtBP-E1A inh	-3	-24	-2	6	-6
gsp agonist	94%	u	11%	u	0%
D2 agonist	8.3	-7.3	-1.1	-0.7	-2.6
Six1-Eya2 blk	1	-13	3	-7	-1
D2 PAM	-5	-6	2	-25	-16
gsp antag	-15%	5%	-1%	-11%	10%
